Beta cell apopt: beta cell apoptosis inhibition | INS-1E cytokine-induced death, ATP luminescence, 48 h; percent of positive-control rescue, neutral wells zero | protection from apoptosis, % (test concentration not listed) | 300,000 tested, 0.8% active | AID 435005;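 active = all replicates at 75% or more, or half of them and the mean; inconclusive = half reach 75% but not the mean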;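 also: 0% = cytokine-treated negative control wells and 100% = positive control rescue; higher means more ATP so stronger rescue from cytokine killing; wells of about 40 µL received 100 nL stock; the first replicate is given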
A1 inh: inhibitors of the anti-apoptotic protein A1, read as caspase activation; MEF A1-2A-BIM cells, Caspase-Glo 3/7 luminescence, 3 h; percent of clofoctol response, vehicle zero; caspase activation, % (concentration not given with the values); 330,000 tested, 0.066% active; AID 2462;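 active = over half of replicate activation scores above 10%, or exactly half above 10 with the replicate mean above 10; inconclusive = replicate mean below 10 yet half the replicates above 10; inactive = over half of replicates below 10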;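 also: wells of about 30 µL received 50 nL stock; many hits fall short of the cut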
Calb FLC: C. albicans growth modulation with fluconazole; C. albicans CaCi-2 (fluconazole-resistant clinical isolate) + fluconazole, Alamar Blue growth, 48 h; growth inhibition, % (no concentration beside the values); 300,000 tested, 0.57% active;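 active = most replicates above 75%; inconclusive = exactly half above 75%; inactive = most below 75%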;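 also: all wells also contain fluconazole at 8 µg/ml as a sub-toxic cotreatment; 0% = median of DMSO wells and 100% = median of geldanamycin control wells; wells of about 8 µL received 7.5 nL stock; the first replicate is given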
LANA-H2B inh: blocks KSHV LANA binding to histone H2A/H2B; Q9QR71; cell-free LANA-H2A/H2B peptide, fluorescence polarization; inhibition, % (no concentration beside the values); 320,000 tested, 0.6% active; in the data active = inhibition mostly above about 10%, no sharp cut-off; inactive = mostly below about 6.7%;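 also: stock transfer was 7.5 nL into about 10 µL; 0% = median of vehicle wells and 100% = median of positive control wells; one replicate is shown; the record names a cut of 25% in any replicate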
RanGTP-Impb inh: inhibitors of RanGTP-importin-beta interaction, primary screen, biochemical, FRET, CFP-Ran, YFP-importin-beta, homogeneous; cell-free CFP-Ran/YFP-importin-beta FRET ratio; inhibition, % (test concentration not listed); 300,000 tested, 1.1% active;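 active = most replicates above 15%; inconclusive = exactly half above 15%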;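 also: 0% = DMSO wells and 100% = Ran loaded with GDP instead of GTP; wells of about 40 µL received 100 nL stock; the first replicate is given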
UCH37 inh: human UCH37 deubiquitinating enzyme inhibition; inhibition, % (no concentration beside the values); purified proteasome/UCH37, Ub-AMC cleavage fluorescence; 330,000 tested, 0.33% active; Q9Y5K5;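 active = mean of two replicates above 20%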;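 also: 0% = compound-free wells with enzyme and 100% = wells lacking proteasome; stock transfer was 100 nL into about 20 µL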
Target sequence (Q9Y5K5 whole entry, looked up): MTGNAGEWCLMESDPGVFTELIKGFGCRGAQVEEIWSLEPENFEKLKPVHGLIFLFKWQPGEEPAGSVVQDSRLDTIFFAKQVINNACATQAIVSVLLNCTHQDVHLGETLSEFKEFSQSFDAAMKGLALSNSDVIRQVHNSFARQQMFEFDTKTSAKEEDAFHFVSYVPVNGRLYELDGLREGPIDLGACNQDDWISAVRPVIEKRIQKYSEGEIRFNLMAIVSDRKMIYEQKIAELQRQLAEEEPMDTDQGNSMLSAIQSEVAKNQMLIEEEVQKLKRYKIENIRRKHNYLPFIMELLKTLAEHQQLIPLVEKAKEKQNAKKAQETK
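Signal – fluorescence, ex 355 nm, em 460 nm · System – Proteasome-bound UCH37 · Input – 0.15 nM proteasome as dispensed · Timing – 30 min preincubation with enzyme, 25 min cleavage at room temperature · Read-out basis – percent inhibition of cleavage signal versus uninhibited and no-proteasome wells · Medium – Tris-HCl pH 7.4 with ATP-MgCl2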
T cruzi inh: blocks replication of Trypanosoma cruzi; T. cruzi beta-gal in NIH3T3, luminescence, 90 h; inhibition, % (concentration not given with the values); 300,000 tested, 1.4% active;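 active = mean inhibition across valid replicates above about 55%, limit read from the data; inconclusive = mean below that limit but half or more replicates reach it; inactive = mean below it, under half of replicates reach it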;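 also: signal also drops with host cell toxicity which is not excluded here; 0% = plate median of DMSO wells and 100% = zero luminescence signal; higher percent means less beta-gal luminescence so fewer parasites; stock transfer was 50 nL into about 50 µL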
Beta2AR agonist: agonists of human beta-2 adrenergic receptor inducing internalization | P07550 | Am2.2-beta2AR cells, FAP receptor internalization, flow cytometry; reference of the scale not given here | response, % (no concentration beside the values) | 340,000 tested, 0.43% active | AID 504454;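 active = response above a set limit, near 3 SD of response in nonfluorescent compounds, cut at about 42% in these data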;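 also: stock transfer was 100 nL into about 11 µL; a reference agonist was the positive control; negative values mostly stem from fluorescent compounds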
Target sequence (P07550 whole entry, looked up): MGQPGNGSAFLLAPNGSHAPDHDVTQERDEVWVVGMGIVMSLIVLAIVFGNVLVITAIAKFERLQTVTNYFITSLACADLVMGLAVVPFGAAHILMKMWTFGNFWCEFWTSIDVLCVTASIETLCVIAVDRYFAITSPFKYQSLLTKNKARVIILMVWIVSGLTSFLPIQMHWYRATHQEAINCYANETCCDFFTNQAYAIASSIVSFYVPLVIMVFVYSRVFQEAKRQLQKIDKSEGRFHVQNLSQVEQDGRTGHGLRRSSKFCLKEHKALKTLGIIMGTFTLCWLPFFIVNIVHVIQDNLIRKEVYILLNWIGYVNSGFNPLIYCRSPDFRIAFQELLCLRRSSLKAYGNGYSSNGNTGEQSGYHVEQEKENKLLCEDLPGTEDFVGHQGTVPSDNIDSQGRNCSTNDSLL
* hit, by the source's call; ? = inconclusive; · = no result given.

molecule	Beta cell apopt	A1 inh	Calb FLC	LANA-H2B inh	RanGTP-Impb inh	UCH37 inh	T cruzi inh	Beta2AR agonist
CCOc1ccc(S(=O)(=O)NNC(=O)c2cc3ccccc3o2)cc1	-10	-0.8	-6	3.7	4.3	3.3	-7	-15
Cc1ccc(-c2cn(S(=O)(=O)c3cccc4nsnc34)nc2N)cc1	1	0.6	10	1.7	?	4.5	-1	5
O=C(CCC(=O)Nc1ccccc1)N/N=C/c1ccccc1F	-1	-0.1	8	1.5	-3.8	·	-9	-4
O=C(C1=COCCO1)N(Cc1nnc(-c2ccc(Cl)cc2)o1)C1CC1	3	0.1	5	-5.1	-1.9	3.7	6	-3
COc1cccc(CNC(=O)CCNC(=O)Cn2ccc3ccccc3c2=O)c1	-2	-0.2	-8	-1.5	1.3	1.0	6	-9
COc1ccc(N2C(=O)C3ON(C4SC(=S)N(C)C4(C)C)C(c4ccc([N+](=O)[O-])cc4)C3C2=O)cc1 (stereo not given)	4	-0.4	-8	2.9	2.1	-1.0	-8	-2
Cc1cccc(NC(=O)C2CCN(S(=O)(=O)c3ccc4c(c3)NC(=O)CO4)CC2)c1C	-3	1.3	-25	2.8	2.9	0.8	0	2
CC1CCN(C(=O)c2ccc3c(c2)OCCO3)CC1	-4	0.0	·	3.1	·	·	·	-3
Cc1ccc2c(c1)N/C(=C(\C=C(/Cl)[N+](=O)[O-])[N+](=O)[O-])N2	-4	-0.2	38	-3.8	12	·	-4	·
CC(C)(C)NC(=O)CCN(/N=C/c1ccccc1F)C1=NS(=O)(=O)c2ccccc21	6	0.4	9	-1.8	-4.9	·	2	7
COc1ccc(S(=O)(=O)N2CCN(C(=O)COc3ccccc3)CC2)cc1	-5	-2.4	1	-3.1	-0.6	0.9	-19	-1
COC(=O)CNC(=O)C1CCC(CNS(=O)(=O)c2cccc3nsnc23)CC1 (stereo not given)	-1	1.9	7	4.4	0.0	2.0	5	1
COc1ccc(/C=N/S(=O)(=O)c2cccs2)cc1	-8	0.6	-13	2.6	-4.0	·	-16	3
CC1C(=O)OC(c2ccc(Br)cc2)C(C)(C)C1=O (stereo not given)	-2	1.2	-7	-5.9	-4.6	5.2	-9	1
C=CCN1N=C(/C=C/c2ccccc2)CCC1=O	-1	-0.7	-9	-2.1	-1.2	7.1	-5	-5
CN(C)S(=O)(=O)c1cccc(NC(=S)NCc2ccco2)c1	-2	-0.6	-1	-0.8	-2.6	-1.1	-1	-3
Cc1ccc(S(=O)(=O)N2CCCN(S(=O)(=O)c3ccc4ccccc4c3)CC2)cc1	6	-0.5	13	3.7	-0.2	4.1	41	-6
O=C(c1ccc(NS(=O)(=O)c2ccc3[nH]c(=O)[nH]c3c2)cc1)N1CCN(c2ccccc2)CC1	-8	0.3	·	-1.4	·	1.8	·	2
O=C(CSc1n[nH]c(-c2ccncc2)n1)Nc1ccccn1	-9	0.2	-5	-0.6	0.4	2.3	-7	-2
Cc1ccc(C)c(N(C(=O)Cn2nnc(-c3cccs3)n2)C(C(=O)NC2CCCC2)c2ccncc2)c1 (stereo not given)	-5	0.8	-11	0.1	2.7	-3.0	-11	-2
CCS(=O)(=O)N1CCC(C(=O)Oc2ccc(C)c(C)c2)CC1	-5	-0.6	0	3.1	-1.1	1.0	-5	7
CCOc1ccc(CNC(=O)CCC(=O)n2ncc3ccc(Cl)cc32)cc1	-2	-0.4	-5	-0.2	7.3	0.7	-9	-4
O=C(CC1SC(N2CCCCC2)=NC1=O)Nc1cccc(C(=O)Nc2ncccc2O)c1 (stereo not given)	2	0.5	0	2.9	0.1	7.6	2	1
CCOc1ccc(NC(=S)NC23CC4CC(CC(C4)C2)C3)cc1	-5	1.3	-7	-1.5	5.4	·	16	-4
Cc1cc(NC(=O)CSc2nc3c(c(=O)n2-c2ccccc2)SC(C)C3)no1 (stereo not given)	-3	-0.5	4	-0.3	1.1	7.4	3	0
COc1cc2c(cc1NC(=O)COC(=O)/C=C/c1ccccc1)oc1ccccc12	13	8.5*	-11	-5.9	2.9	-12	-30	-2
CCn1nc(NC(=O)c2ccncc2)c2cc3cccc(C)c3nc21	-2	-0.6	7	4.6	?	0.0	?	21
O=C(Cn1cc(C(F)(F)F)cc(Cl)c1=O)NCCc1ccc(Cl)cc1Cl	1	0.2	2	-2.0	-2.3	4.6	-6	55*
NC(=O)CSc1nnc(-c2cccnc2)n1Cc1ccccc1	-9	0.4	2	2.4	2.9	3.8	2	11
CN(CC(=O)Nc1ccc(F)c(F)c1F)C(=O)C1COc2ccccc2O1 (stereo not given)	6	1.0	·	-2.7	·	0.9	·	12
Cc1cc(/C=C(/C#N)c2cccc(F)c2)c(C)n1-c1cccnc1	6	-0.5	20	0.9	7.6	7.1	26	21
CC(=O)O[C@@H]1[C@H]2[C@@H](C[C@@H](C)[C@@H]3C=CC(=O)[C@@]13C)OC(=O)[C@@H]2C	-5	-0.3	21	-4.1	0.1	1.1	-8	-4
O=C(Nc1ccc(Oc2ccsc2C(=O)O)cc1)c1ccccc1F	-2	0.8	5	0.4	-1.8	3.4	5	0
Cc1cc(CN(C)C(=O)c2ccc(OC3CCN(S(=O)(=O)N(C)C)CC3)cc2)n[nH]1	-2	-0.3	0	2.1	7.2	2.1	-6	-6
Cn1c(=O)[nH]c(=O)c2c1nc(N1CCCCCC1)n2Cc1cccc2ccccc12	0	1.0	6	1.2	1.7	32*	41	11
CCOC(=O)N1CCN(c2nc(N(c3ccccc3)c3ccccc3)nc(-n3ccnc3)n2)CC1	-3	0.3	12	-0.4	-2.7	1.3	49	·
Cc1ccc(NC(=O)CSc2nc3ncc(Cl)cc3[nH]2)c(C)c1	5	0.0	-1	-5.0	2.0	0.7	-4	-10
COc1ccc([N+](=O)[O-])cc1NC(=O)C1CCCCC1C(=O)O (stereo not given)	-8	0.1	9	-4.0	7.7	3.9	0	-6
NC(=O)C1CCN(c2nc(-c3cccnc3)cs2)CC1	-1	0.1	·	2.6	·	4.4	·	-11
Cn1c(CN2CCOCC2)nc2cc(NC(=O)c3ccc(F)cc3)ccc21	1	1.2	-7	-5.2	-2.7	1.0	1	0

Six entries already listed, sorted by the number in LANA-H2B inh, descending.
SMILES	LANA-H2B inh	RanGTP-Impb inh	UCH37 inh	Beta2AR agonist
CC1CCN(C(=O)c2ccc3c(c2)OCCO3)CC1	3.1	·	·	-3
Cc1cc(CN(C)C(=O)c2ccc(OC3CCN(S(=O)(=O)N(C)C)CC3)cc2)n[nH]1	2.1	7.2	2.1	-6
Cc1ccc(-c2cn(S(=O)(=O)c3cccc4nsnc34)nc2N)cc1	1.7	?	4.5	5
Cc1cc(/C=C(/C#N)c2cccc(F)c2)c(C)n1-c1cccnc1	0.9	7.6	7.1	21
O=C(c1ccc(NS(=O)(=O)c2ccc3[nH]c(=O)[nH]c3c2)cc1)N1CCN(c2ccccc2)CC1	-1.4	·	1.8	2
COc1cc2c(cc1NC(=O)COC(=O)/C=C/c1ccccc1)oc1ccccc12	-5.9	2.9	-12	-2

Records above printed as active in Beta2AR agonist:
structure	LANA-H2B inh	RanGTP-Impb inh	UCH37 inh	Beta2AR agonist
O=C(Cn1cc(C(F)(F)F)cc(Cl)c1=O)NCCc1ccc(Cl)cc1Cl	-2.0	-2.3	4.6	55*

Returning to the listing; the three compounds before the break are reprinted first.
molecule	Beta cell apopt	A1 inh	Calb FLC	LANA-H2B inh	RanGTP-Impb inh	UCH37 inh	T cruzi inh	Beta2AR agonist
COc1ccc([N+](=O)[O-])cc1NC(=O)C1CCCCC1C(=O)O (stereo not given)	-8	0.1	9	-4.0	7.7	3.9	0	-6
NC(=O)C1CCN(c2nc(-c3cccnc3)cs2)CC1	-1	0.1	·	2.6	·	4.4	·	-11
Cn1c(CN2CCOCC2)nc2cc(NC(=O)c3ccc(F)cc3)ccc21	1	1.2	-7	-5.2	-2.7	1.0	1	0
Cc1ccc(C(=O)Nc2ccc(O)cc2C(=O)O)cc1C	-1	-4.3	-5	9.8	9.0	4.7	-1	14
Cc1cc(-c2ccco2)n(CC(=O)O)n1	-2	1.9	-15	1.7	-0.8	4.6	-9	-4
Cc1c(Cc2ccccc2)c(=O)oc2cc(O)cc(O)c12	-4	0.4	26	5.8	4.4	-138	12	5
O=C(/C=C1\SC(=O)NC1=O)Nc1ccc(C(=O)O)cc1	-3	-0.2	1	-3.1	?	9.5	-5	-2
O=C(OC1CO[C@H]2O[C@@H]1[C@H](OC(=O)c1ccccc1)[C@H]2OC(=O)c1ccccc1)c1ccccc1 (stereo not given in full)	·	0.0	2	7.5	1.4	2.6	6	6
COc1ccccc1N(CCC#N)C(=S)Nc1ccc(S(=O)(=O)N2CCOCC2)cc1	-4	-1.5	·	0.5	·	2.4	·	3
CCOc1ccc(CNC(=O)CS(=O)(=O)Cc2nc(-c3ccc(OC)cc3)oc2C)cc1	-7	1.1	-5	-4.3	1.3	2.5	-12	-8
COc1cc(CCC(=O)OCC(=O)Nc2c(F)cccc2F)cc(OC)c1OC	-5	-0.4	-11	-0.4	-2.6	1.3	-5	0
Cc1ccc(-c2nc3ccccc3[nH]2)cn1	15	-9.8	-10	2.5	-6.4	-31	-7	-14

Screening data deposited in PubChem BioAssay by several laboratories.
